# Compound activity from PubChem.
# RmlCD inh mix: mixture blocks RmlC and RmlD coupled enzyme activity. RmlC/RmlD coupled enzyme inhibition, 384-well mixture HTS. inhibition, % at 5.5 µM. 0.39% of 110,000 active. AID 1532; in the data active means inhibition above about 30%, passing the limit was not always enough; only retested compounds are shown here; further: strong numbers were not always called active
# RmlCD inh mix retest: further read-out of RmlCD inh mix, marked with its call; inhibition, %; measured here: mean retest inhibition;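 single compounds in two wells; values far above 100% likely come from compound fluorescence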
# Active calls of the source: *; i = inactive; / = not tested or not shown; + = active, no number.
# Order of results – RmlCD inh mix retest, RmlCD inh mix
Cc1ccc(OCC(=O)c2cc(C)c(C)cc2C)c([N+](=O)[O-])n1
→ -13, 40
COc1ccc(OC)c2sc(NC(=O)c3ccc(S(=O)(=O)N4CCOCC4)cc3)nc12
→ 2, 36
Cc1cc(C)nc(NCC(O)COc2ccccc2C)n1 (stereo not given)
→ -3, 37
CN(C)CCCCCNCCCNC(=O)/C=N\O
→ -3, 72
CCc1nc(Nc2ccncc2)c2oc3ccccc3c2n1
→ 17, 32
COc1ccc2c(c1)c1ccccc1n2C
→ -26, 144
Cc1nnsc1C(=O)Nc1ccc(Cl)cc1Cl
→ -8, 59
CCN1CCN(c2ncc(C(=O)Nc3ccccc3C(=O)OC)c3ccccc23)CC1
→ 15, 32
Nc1cc2ccccc2oc1=O
→ 6, 31
Cc1nc2ccccc2c(-c2ccccc2)c1C(=O)c1ccccc1
→ -1, 66
O=c1c2ccccc2sn1-c1ccc(S(=O)(=O)N2CCCC2)cc1
→ 7, 34
CCCCC(CC)C(=O)NCCc1ccc(S(N)(=O)=O)cc1 (stereo not given)
→ -7, 48
COc1cccc(NC(=O)C(NCC2CCCCC2)c2ccccc2)c1 (stereo not given)
→ -6, 41
CCC(=O)N(Cc1cc(=O)[nH]c2ccccc12)c1cccc(C)c1
→ -12, 60
CCOc1ccc(C2OC34CCCCC3C(C#N)(C#N)C2(C#N)C(=N)O4)cc1OC (stereo not given)
→ 128*, +

# Arranged by formula weight (largest number first): some entries from above
# Order of results – RmlCD inh mix retest, RmlCD inh mix
COc1ccc(OC)c2sc(NC(=O)c3ccc(S(=O)(=O)N4CCOCC4)cc3)nc12
→ 2, 36
O=c1c2ccccc2sn1-c1ccc(S(=O)(=O)N2CCCC2)cc1
→ 7, 34
COc1cccc(NC(=O)C(NCC2CCCCC2)c2ccccc2)c1 (stereo not given)
→ -6, 41
Cc1nnsc1C(=O)Nc1ccc(Cl)cc1Cl
→ -8, 59
COc1ccc2c(c1)c1ccccc1n2C
→ -26, 144
Nc1cc2ccccc2oc1=O
→ 6, 31

# Back to the main list with the six entries that preceded the break.
# Order of results – RmlCD inh mix retest, RmlCD inh mix
Cc1nc2ccccc2c(-c2ccccc2)c1C(=O)c1ccccc1
→ -1, 66
O=c1c2ccccc2sn1-c1ccc(S(=O)(=O)N2CCCC2)cc1
→ 7, 34
CCCCC(CC)C(=O)NCCc1ccc(S(N)(=O)=O)cc1 (stereo not given)
→ -7, 48
COc1cccc(NC(=O)C(NCC2CCCCC2)c2ccccc2)c1 (stereo not given)
→ -6, 41
CCC(=O)N(Cc1cc(=O)[nH]c2ccccc12)c1cccc(C)c1
→ -12, 60
CCOc1ccc(C2OC34CCCCC3C(C#N)(C#N)C2(C#N)C(=N)O4)cc1OC (stereo not given)
→ 128*, +
CCCc1cc(=O)oc2c(CN3CCCC3)c(O)ccc12
→ 150*, 99*
O=C(OCCN1CCCCC1)c1cc2ccccc2o1
→ 1, 50
c1ccc2sc(NC3=NCN(C4CCCCC4)CN3)nc2c1
→ -16, 146
CCN1C(=O)C2C(c3cccc(F)c3)NC(C)(C(=O)OC)C2C1=O (stereo not given)
→ -9, 37
CCOc1ccccc1N(CC(=O)NC1CCCC1)C(=O)CCCC(=O)Nc1ccccn1
→ 3, 64
Cc1c(C)c2cc(Cl)c(O)c(CN3CCCCC3)c2oc1=O
→ /, 90*
CCCCNC(=O)c1ccc2c(c1)ncn2C1CCCC1
→ -1, 93
CN1C(=O)N(C)C(=O)C2(Sc3ccccc3C2=O)C1=O
→ /, +
C=CCn1cnc2scc(-c3ccccc3)c2c1=O
→ -9, 116
c1ccc(-c2cn3cccnc3n2)cc1
→ 82*, 70*
CCOC(=O)C1=C(C)N=c2s/c(=C/c3ccco3)c(=O)n2C1c1cccc(OC)c1 (stereo not given)
→ -8, 32
CN(C(=O)C1CCCO1)c1nnc(-c2ccncc2)s1 (stereo not given)
→ /, 161*
CC(C)NC(=O)Cn1c(SCC(=O)c2ccc(F)cc2)nc2ccccc21
→ -12, 34
CCC(=O)Nc1cccc(NC(=O)c2ccc3c(c2)OCO3)c1
→ 8, 46
O=C(Nc1ccn(Cc2ccc(Cl)cc2)n1)c1ccc2c(c1)OCO2
→ -4, 44
COc1ccc(-c2cn3ccccc3n2)cc1OC
→ 24, 40
COc1ccc(-c2nnc(SCc3nnc(-c4ccccc4)o3)n2-c2ccccc2)cc1
→ 1, i
CCCC[N+]12CCC(CC1)C(C(=O)c1cccs1)C2 (stereo not given)
→ -5, 32
Cc1cc(C(F)(F)F)c(C#N)c(=O)[nH]1
→ 78*, 32*
O=C(O)c1ccc2cccc(Cl)c2c1O
→ 3, 86
Cn1c(=O)cc(OCC(=O)Nc2ccccn2)c2ccccc21
→ -3, 130
O=C(COC(=O)C1CC(=O)N(Cc2ccccc2)C1)Nc1ccc2c(c1)OCO2 (stereo not given)
→ 5, 148
C=CCNC(=S)NNC(=O)c1cccn(Cc2ccc(Cl)c(Cl)c2)c1=O
→ 41, 72

# Single values from above:
# Result of CCCC[N+]12CCC(CC1)C(C(=O)c1cccs1)C2 (stereo not given) in RmlCD inh mix retest: -5
# Result of O=C(O)c1ccc2cccc(Cl)c2c1O in RmlCD inh mix retest: 3

# A portion of the library (hit frequency here may not be typical).
